Screening data (PubChem)
Vaccinia stage – Vaccinia orthopox stage-specific inhibition; Vaccinia-infected cells, mCherry/Venus stage reporter fluorescence; hits give low values; some inactives read as strong as hits; activity change (mCherry), % (no concentration beside the values); 89,000 compounds, 0.01% hits;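 active means mCherry past -33% and 40 or more points under the early reporter, replicates agreeing; inconclusive means past -33% without that gap or agreement; tested in A549 cells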;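 further: scaled between vehicle wells and reference inhibitor wells; 23 nL library stock went into each well; one replicate is shown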
Vaccinia stage Venus – recorded beside Vaccinia stage, whose call it bears; activity change (Venus), %; measured here: Venus reporter, other viral stage;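 negative = less Venus signal; first of two replicates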
The depositor's hits bear a star; ? = inconclusive; / = not tested or not shown. An excerpt. The share of hits here may be higher or lower than overall.

structure	Vaccinia stage	Vaccinia stage Venus
CCS(=O)(=O)Nc1ccc2c(c1)C(=O)N(C)C[C@@H](OC)[C@H](C)CN(Cc1ccccn1)[C@@H](C)CO2	11	10
C[C@H](CO)N1C[C@H](C)[C@H](CN(C)C(=O)Nc2ccc(F)cc2)Oc2cc(C#CC3(O)CCCC3)ccc2S1(=O)=O	-28	-15
CNC(=O)C[C@H]1CC[C@@H]2[C@H](COC[C@@H](O)CN2Cc2ccc(Cl)c(Cl)c2)O1	-5	5
COCCNC(=O)C[C@H]1CC[C@H](NC(=O)NC2CCCCC2)[C@@H](CO)O1	6	-1
C[C@H](CO)N1C[C@H](C)[C@H](CN(C)Cc2ccccc2C(F)(F)F)OCc2cnnn2CCCC1=O	-20	-14
Cc1noc(C)c1S(=O)(=O)Nc1ccc2c(c1)CC(=O)N([C@H](C)CO)C[C@@H](C)[C@H](CN(C)C)O2	1	-1
Cc1noc(C)c1S(=O)(=O)Nc1cccc2c1O[C@H](CN(C)Cc1ccc(Oc3ccccc3)cc1)[C@H](C)CN([C@H](C)CO)C2=O	-13	-7
COc1ccc(S(=O)(=O)Nc2cccc3c2O[C@H](CN(C)C(=O)Nc2ccc4c(c2)OCO4)[C@@H](C)CN([C@H](C)CO)C3=O)cc1	7	6
Cc1noc(C)c1S(=O)(=O)N(C)C[C@@H]1OCCCC[C@@H](C)Oc2ccc(NC(=O)Cc3ccccc3)cc2C(=O)N([C@H](C)CO)C[C@H]1C	?	/
C[C@@H]1CN([C@@H](C)CO)C(=O)Cc2cc(NC(=O)NC3CCCCC3)ccc2O[C@H]1CN(C)Cc1ccccc1	?	/

Pulled by structure from above (six):
structure	Vaccinia stage	Vaccinia stage Venus
Cc1noc(C)c1S(=O)(=O)N(C)C[C@@H]1OCCCC[C@@H](C)Oc2ccc(NC(=O)Cc3ccccc3)cc2C(=O)N([C@H](C)CO)C[C@H]1C	?	/
CNC(=O)C[C@H]1CC[C@@H]2[C@H](COC[C@@H](O)CN2Cc2ccc(Cl)c(Cl)c2)O1	-5	5
C[C@H](CO)N1C[C@H](C)[C@H](CN(C)Cc2ccccc2C(F)(F)F)OCc2cnnn2CCCC1=O	-20	-14
Cc1noc(C)c1S(=O)(=O)Nc1ccc2c(c1)CC(=O)N([C@H](C)CO)C[C@@H](C)[C@H](CN(C)C)O2	1	-1
C[C@H](CO)N1C[C@H](C)[C@H](CN(C)C(=O)Nc2ccc(F)cc2)Oc2cc(C#CC3(O)CCCC3)ccc2S1(=O)=O	-28	-15
COCCNC(=O)C[C@H]1CC[C@H](NC(=O)NC2CCCCC2)[C@@H](CO)O1	6	-1

More entries
structure	Vaccinia stage	Vaccinia stage Venus
COc1cccc(S(=O)(=O)N[C@@H]2CC[C@H](CCNC(=O)Nc3cc(F)ccc3F)O[C@@H]2CO)c1	-6	6
C[C@H]1CN([C@@H](C)CO)C(=O)Cc2cc(NS(=O)(=O)c3ccc(F)cc3)ccc2O[C@@H]1CN(C)Cc1ccc(C(=O)O)cc1	5	-6
COc1ccc(NC(=O)N(C)C[C@H]2Oc3ccc(NC(=O)Cc4cn(C)c5ccccc45)cc3CC(=O)N([C@@H](C)CO)C[C@H]2C)cc1	6	1
Cc1ccc(S(=O)(=O)N(C)C[C@H]2OCCCC[C@H](C)Oc3ccc(NC(=O)Nc4ccc5c(c4)OCO5)cc3C(=O)N([C@@H](C)CO)C[C@H]2C)cc1	-5	-3
C[C@H]1CN([C@@H](C)CO)C(=O)c2cc(NC(=O)Nc3ccc(F)cc3)ccc2O[C@@H]1CN(C)S(C)(=O)=O	11	16
COc1ccc2c3c(n(C)c2c1)[C@@H](CO)NCC31CN(CC2CC2)C1	4	-3
C[C@H]1CCCCO[C@H](CN(C)CC2CCCCC2)[C@@H](C)CN([C@@H](C)CO)C(=O)c2cc(NC(=O)C3CCCCC3)ccc2O1	?	/
CC(C)NC(=O)Nc1cccc2c1O[C@H](CN(C)Cc1ccccc1)[C@H](C)CN([C@@H](C)CO)C2=O	4	1
O=S(=O)(c1ccccc1)N1CC[C@@H]2[C@H](CO)Nc3ccc(C#Cc4ccccc4F)cc3[C@@H]21	-8	-2
CCC(=O)Nc1ccc2c(c1)OC[C@H](C)N(C(=O)COC)C[C@H](C)[C@@H](OC)CN(C)C2=O	16	15
C[C@@H]1CN([C@@H](C)CO)C(=O)c2cc(C#CC3CC3)cnc2O[C@H]1CN(C)C(=O)Cc1ccccn1	22	5
C[C@H](O)C#Cc1cnc2c(c1)C(=O)N([C@@H](C)CO)C[C@@H](C)[C@@H](CN(C)C(=O)Cc1ccccn1)O2	18	11
Cc1noc(C)c1S(=O)(=O)N(C)C[C@@H]1Oc2ccc(N(C)C)cc2CC(=O)N([C@H](C)CO)C[C@@H]1C	2	0
CNC[C@@H]1Oc2cc(C#CC3CCCC3)ccc2S(=O)(=O)N([C@@H](C)CO)C[C@@H]1C	?	/
COc1ccc(S(=O)(=O)N(C)C[C@H]2OCCCC[C@@H](C)Oc3ccc(NS(=O)(=O)c4ccc(C)cc4)cc3C(=O)N([C@@H](C)CO)C[C@@H]2C)cc1	-22	-14
CC(=O)N1[C@@H](CO)[C@@H](c2ccccc2)C12CN(Cc1nccs1)C2	0	1
C[C@@H]1CCCCO[C@@H](CN(C)C(=O)Nc2ccc3c(c2)OCO3)[C@H](C)CN([C@H](C)CO)C(=O)c2cc(NC(=O)CCC(F)(F)F)ccc2O1	-20	-9
CCNC(=O)c1cc2c(c(-c3cccc(-c4cccc(C(=O)N(C)C)c4)c3)n1)[C@H](CCO)N([S@@](=O)C(C)(C)C)C2	12	20
CN(C)C(=O)[C@H]1[C@H](CO)[C@H]2Cn3c(ccc(-c4cncnc4)c3=O)[C@H]2N1Cc1ccccc1F	12	16
CO[C@H]1CN(C)C(=O)c2cc(NC(=O)c3nc4ccccc4s3)ccc2OC[C@@H](C)N(Cc2cccnc2)C[C@H]1C	-32	-31
C[C@@H]1CN([C@H](C)CO)C(=O)c2cccc(NC(=O)Nc3ccc(C(F)(F)F)cc3)c2O[C@@H]1CN(C)S(=O)(=O)c1cn(C)cn1	-22	-11
Cc1noc(C)c1NC(=O)Nc1ccc2c(c1)C(=O)N([C@@H](C)CO)C[C@@H](C)[C@@H](CN(C)C(=O)C1CCCCC1)OCCCC[C@H](C)O2	9	0
CCCNC(=O)N1C[C@H](C)[C@@H](OC)CN(C)C(=O)c2cc(NS(=O)(=O)CC(F)(F)F)ccc2OC[C@H]1C	-8	-3
C[C@H](CO)N1C[C@H](C)[C@@H](CN(C)C(=O)Nc2ccccc2)Oc2ccc(NS(=O)(=O)c3ccc(Cl)cc3)cc2CC1=O	-14	-7
C[C@@H]1CN([C@@H](C)CO)C(=O)c2cccc(N(C)C)c2O[C@@H]1CN(C)C(=O)Nc1ccc2c(c1)OCO2	-9	-5
C[C@@H]1CCCCO[C@@H](CN(C)C(=O)Nc2ccccc2)[C@H](C)CN([C@@H](C)CO)C(=O)c2cc(NC(=O)CCC(F)(F)F)ccc2O1	29	17
C[C@H](O)C#Cc1cnc2c(c1)C(=O)N([C@@H](C)CO)C[C@H](C)[C@@H](CN(C)C(=O)c1ccncc1)O2	23	8
C[C@H](CO)N1C[C@H](C)[C@@H](CN(C)C(=O)NC2CCCCC2)Oc2ccc(NC(=O)Nc3ccc(F)cc3)cc2CC1=O	14	8
COCC(=O)Nc1ccc2c(c1)C(=O)N(C)C[C@@H](OC)[C@@H](C)CN(C(=O)Cc1cccnc1)[C@H](C)CO2	9	15
CO[C@H]1CN(C)C(=O)c2ccc(NC(=O)C3CC3)cc2OC[C@@H](C)N(C(=O)CN(C)C)C[C@@H]1C	4	7
CC(C)NC(=O)Nc1ccc2c(c1)CC(=O)N([C@H](C)CO)C[C@H](C)[C@H](CN(C)C(=O)Nc1cccc3ccccc13)O2	13	10
C[C@@H]1CN([C@@H](C)CO)S(=O)(=O)c2ccc(C#Cc3ccccc3)cc2O[C@H]1CN(C)C(=O)c1ccccn1	-25	-7
C[C@H]1CN([C@@H](C)CO)C(=O)CCCn2nncc2CO[C@H]1CN(C)C(=O)c1ccccc1	11	10
CO[C@H]1CN(C)C(=O)c2cc(NC(=O)Cc3ccccc3)ccc2OC[C@@H](C)N(CC2CC2)C[C@@H]1C	-3	-8
C[C@@H]1CN([C@H](C)CO)C(=O)c2cc(NC(=O)Nc3ccc(C(F)(F)F)cc3)ccc2O[C@@H]1CN(C)C(=O)Nc1ccc(C(F)(F)F)cc1	-23	-27
C[C@H]1CN([C@@H](C)CO)C(=O)Cc2cc(NC(=O)CCCCCC(=O)Nc3ccccc3N)ccc2O[C@H]1CN(C)Cc1ccc2c(c1)OCO2	-7	0
C/C=C/c1ccc([C@H]2[C@@H](CO)N(Cc3ccccn3)[C@@H]2CNC(C)=O)cc1	3	13
CNC[C@H]1Oc2ccc(NC(=O)NC3CCCCC3)cc2CC(=O)N([C@H](C)CO)C[C@H]1C	7	5
C[C@H](NC(=O)[C@H]1[C@H](CO)[C@H]2Cn3c(ccc(C4=CCCCC4)c3=O)[C@@H]1N2)c1ccccc1	-7	-1
C[C@H]1CCCCO[C@@H](CN(C)S(=O)(=O)c2ccc(Cl)cc2)[C@@H](C)CN([C@@H](C)CO)C(=O)c2cc(NS(=O)(=O)c3ccc(F)cc3)ccc2O1	?	/
COC(=O)C[C@H]1C[C@H]2c3cc(NC(=O)CN(C)C)ccc3O[C@H]2[C@H](CO)O1	-7	2
O=C(C[C@@H]1CC[C@H](NC(=O)Nc2ccccc2F)[C@@H](CO)O1)NCc1ccc(F)cc1	11	-1
C/C=C/c1ccc([C@H]2[C@@H](CO)N(C(=O)C3CC3)[C@H]2CNC(=O)CN(C)C)cc1	2	5
C[C@H](CO)N1C[C@H](C)[C@H](CN(C)C(=O)c2ccc(F)cc2)Oc2ncc(C3=CCCCC3)cc2C1=O	-12	-7
C/C=C/c1cnc2c(c1)C(=O)N([C@H](C)CO)C[C@H](C)[C@@H](CN(C)C(=O)Nc1ccc(OC)cc1)O2	19	11
COc1ccc(NC(=O)N2CCCCN3[C@H](CO)[C@@H](c4ccc(C#Cc5ccccn5)cc4)[C@@H]3C2)cc1	5	-7
CO[C@H]1CC[C@@H]2CCN(C)C(=O)[C@H](C)[C@H](OC)CN(C)C(=O)c3cc(C#N)ccc3OC[C@H]1O2	13	8
COc1cccc(-c2ccc([C@@H]3[C@@H](CO)N4CCCCN(C(=O)c5ccc6c(c5)OCO6)C[C@H]34)cc2)c1	-17	-8
CN(C)CC(=O)Nc1ccc2c(c1)[C@H]1C[C@H](CC(=O)N3CCc4ccccc4C3)O[C@H](CO)[C@H]1O2	-12	-7
CCCC#Cc1ccc2c(c1)O[C@@H](CN(C)C)[C@H](C)CN([C@H](C)CO)S2(=O)=O	-23	-7

Other results follow:
structure	Vaccinia stage	Vaccinia stage Venus
CCC(=O)N(C)C[C@H]1Oc2cc(C#CC(C)(C)O)ccc2S(=O)(=O)N([C@@H](C)CO)C[C@H]1C	12	8
O=C(C[C@@H]1C[C@H]2c3cc(NC(=O)NC4CCCC4)ccc3O[C@H]2[C@@H](CO)O1)NCc1ccncc1	-4	0
CCCN1[C@H](C(=O)NCCCN2CCOCC2)[C@@H](CO)[C@@H]2Cn3c(ccc(-c4cccnc4)c3=O)[C@@H]21	-1	9
COCC(=O)Nc1ccc2c(c1)[C@@H]1C[C@@H](CC(=O)NCc3ccccc3OC)O[C@H](CO)[C@@H]1O2	3	4
CNC[C@H]1OCCCC[C@@H](C)Oc2ccc(NC(=O)Nc3ccc(OC)cc3)cc2C(=O)N([C@@H](C)CO)C[C@H]1C	3	2
COc1cccc(-c2cnc3c(c2)C(=O)N([C@H](C)CO)C[C@H](C)[C@@H](CN(C)Cc2ccc(F)cc2)O3)c1	-32	-31
COCC(=O)N(C[C@@H]1[C@@H](c2ccccc2)[C@@H](CO)N1C(=O)NC(C)C)C(C)C	10	4
CCCC#Cc1ccc2c(c1)O[C@H](CN(C)Cc1ccccn1)[C@H](C)CN([C@H](C)CO)S2(=O)=O	?	/
C[C@H](CO)N1C[C@H](C)[C@H](CN(C)C)Oc2ccc(NS(=O)(=O)c3ccccc3)cc2C1=O	3	-1
C[C@@H]1CCCCO[C@@H](CN(C)C(=O)NC2CCCCC2)[C@@H](C)CN([C@@H](C)CO)C(=O)c2cc(NC(=O)Cc3ccccc3)ccc2O1	-14	-7
C[C@H]1CCCCO[C@H](CN(C)S(=O)(=O)c2cn(C)cn2)[C@@H](C)CN([C@@H](C)CO)C(=O)c2cc(NC(=O)Nc3ccccc3)ccc2O1	1	-7
C[C@H]1CN([C@@H](C)CO)C(=O)Cc2cc(NC(=O)Nc3ccccc3)ccc2O[C@H]1CN(C)Cc1ccc(C(=O)Nc2ccccc2N)cc1	-7	2
O=C(Nc1ccccc1F)N[C@H]1CC[C@H](CC(=O)N2CCCCC2)O[C@@H]1CO	-4	3
O=C(C[C@@H]1C[C@H]2c3cc(NC(=O)Nc4ccccc4F)ccc3O[C@H]2[C@H](CO)O1)NCc1ccc2c(c1)OCO2	-13	-3
COc1ccccc1CN1CC[C@@H]2[C@@H](CO)Nc3ccc(-c4ccc(C(=O)N(C)C)cc4)cc3[C@@H]21	-39*	6.3*
